Bioassay records: PubChem BioAssay, National Center for Advancing Translational Sciences (NCATS)
RE007 growth inh: less growth of the S. pombe RE007 Vpr strain | S. pombe RE007 Vpr strain, BacTiter-Glo ATP luminescence, 24 h; control for the full effect not named in the record | Potency, µM (doses to about 92.2 µM), for inactives: top-dose activity change, negative = less growth | 360,000 tested, 0.21% active | AID 651644; active = well fitted falling curve with a large enough effect; inconclusive = small, poorly fitted or top-dose-only effect; inactive = no such curve, though single readings can be large or run the other way;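 further: on the % scale 0 is the no-effect control and ±100 the full control effect; nearly all actives have a fitted effect of over 50% in size; the assay follows cell death caused by Vpr and the record does not say whether a fall means rescue or toxicity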
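Fission yeast strain RE007, carrying one chromosomally integrated HIV-1 vpr copy, was seeded at OD 0.01 in PMG+AL medium with 23 nL pinned compound. After 24 h at 30 °C and 99% humidity, viability was read by BacTiter-Glo luminescence.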
Lassa entry inh: inhibitors of Lassa virus binding or cell entry. Lassa virus pseudotype entry inhibition, cell reporter; control for the full effect not named in the record. Potency, µM (series often up to 37.9 µM), inactives show at the highest dose activity change, negative = inhibition, usual class: inhibitors. 300,000 tested, 1.2% active; active means well fitted inhibition curve with a large enough effect; inconclusive means small, poorly fitted or top-dose-only effect, or effect the other way; inactive means flat fitted curve, though single readings scatter; tested in HEK293 cells; further: on the % scale 0 is the no-effect control and ±100 the full control effect; nearly all actives have a fitted effect of over 50% in size; luciferase read-out
Cruzain Triton: inhibitors of Trypanosoma cruzi cruzain with detergent. AID 1478. purified cruzain, Z-FR-AMC fluorescence, 0.01% Triton. Potency, µM, without a hit: max response, negative = inhibition, hits mostly inhibitors. 200,000 tested, 0.43% active. P25779; active means well fitted curve in the direction sought with a large enough effect; inconclusive means small, poorly fitted or top-dose-only effect, or another doubt; inactive means no such curve, though single readings can be large; an effect the other way counts as inactive or inconclusive;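 further: plate controls were neutral wells for no effect and buffer without enzyme for full effect; nearly all actives have a fitted effect of over 40% in size; top concentration of the series not given in the record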
Target sequence (P25779 123-467 limits assumed): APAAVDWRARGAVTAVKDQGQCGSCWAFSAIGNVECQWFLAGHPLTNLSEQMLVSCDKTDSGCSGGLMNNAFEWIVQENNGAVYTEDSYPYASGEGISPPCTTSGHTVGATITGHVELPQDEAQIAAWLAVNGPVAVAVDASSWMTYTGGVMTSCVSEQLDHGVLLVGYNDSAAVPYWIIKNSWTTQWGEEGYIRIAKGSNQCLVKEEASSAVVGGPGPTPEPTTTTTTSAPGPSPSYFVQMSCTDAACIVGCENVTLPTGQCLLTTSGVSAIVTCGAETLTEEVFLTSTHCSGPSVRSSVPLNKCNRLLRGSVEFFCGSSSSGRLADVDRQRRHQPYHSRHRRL
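15 min RT preincubation of 1.5 nM cruzain with compound, then 2 uM Z-FR-AMC added; kinetic AMC fluorescence, 60 s delta. Triton X-100 0.01%, pH 5.5.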
MARV entry inh: Marburg virus entry inhibition; 300,000 tested, 1.8% active; Potency, µM (top dose mostly 37.8 µM), for the others: at the top dose activity change, negative = inhibition, hits mostly inhibitors; Marburg virus pseudotyped entry inhibition, cell reporter; control for the full effect not named in the record; about a third of the inactives were read at about 46 µM; active = well fitted inhibition curve with a large enough effect; inconclusive = small, poorly fitted or top-dose-only effect, or effect the other way; inactive = flat fitted curve, though single readings scatter; tested in HEK293 cells; about a fifth of its hits are not listed in these tables; further: on the % scale 0 is the no-effect control and ±100 the full control effect; luciferase read-out
SARS PLpro yeast: inhibitors of SARS-CoV papain-like protease in yeast | 330,000 tested, 0.19% active | S. cerevisiae expressing SARS-CoV PLpro, growth rescue; control for the full effect not named in the record | Potency, µM (top dose mostly 32.9 µM), without a hit: at the highest dose activity, positive = growth rescue; further: 0% is about no effect; nearly all actives have a fitted effect of over 55% in size; growth read by luminescence after 48 h
NS1 inh: blocks influenza NS1 protein function. S. cerevisiae slowed by influenza A NS1, growth recovery by OD600. Potency, µM (doses to about 46.1 µM), for inactives: top-dose activity, positive = more growth. 270,000 tested, 0.4% active; further: actives are rising curves; nearly all actives have a fitted effect of over 50% in size
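Read-out: OD600 growth recovery of NS1-expressing budding yeast. Cells grown overnight at 30C in -URA glucose medium, washed, resuspended and diluted 1:100 in 2% galactose assay medium, pH 6.0. Same strain lacking NS1 served as positive control.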
Cruzain inh noDet: blocks cruzain activity in detergent-free assay; P25779; purified cruzain, Z-FR-AMC fluorescence, no detergent; 200,000 tested, 2.3% active; Potency, µM, without a hit: max response, negative = inhibition, usual class: inhibitors; AID 1476; active means well fitted curve in the direction sought with a large enough effect; inconclusive means small, poorly fitted or top-dose-only effect, or another doubt; inactive means no such curve, though single readings can be large; an effect the other way counts as inactive or inconclusive;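 further: plate controls were enzyme without inhibitor for no effect and buffer without enzyme for full effect; nearly all actives have a fitted effect of over 40% in size; top concentration of the series not given in the record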
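Detergent-free condition (0.00005% Triton X-100) in acetate buffer pH 5.5 with DTT. 1.5 nM enzyme and compound were pre-mixed 15 min, then 2 uM Z-FR-AMC substrate added; reaction progress from fluorescence change between first and third reads (60 s).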
2A StopGo: FMDV 2A StopGo reporter, luciferase signal | Potency, µM (top dose mostly 57.9 µM), without a hit: at the top dose signal change, negative = less light | 410,000 tested, 1.2% active | human cells with a luciferase reporter of 2A StopGo recoding; control for the full effect not named in the record; active = well fitted falling curve with a large enough effect; inconclusive = small, poorly fitted or top-dose-only effect; inactive = no such curve, though single readings can be large or run the other way; tested in HEK293T cells; further: on the % scale 0 is the no-effect control and ±100 the full control effect; nearly all actives have a fitted effect of over 45% in size; luciferase light after 4 h
* hit, by the source's call; & = joins results of further samples; [ ] = dose if it differs, or a comment. Unless noted, the call rests on the fitted dose curve; in most records, active means well fitted rising curve with a large enough effect; inconclusive means small, poorly fitted or top-dose-only effect; inactive means no such curve, though single readings can be large or run the other way. Potency means the concentration at half of the fitted maximal effect. No enrichment for hits (roughly 4.8% active in at least one column).

For O=C1CCCc2nc3c(cc21)C(O)Oc1ccccc1-3 (stereo not drawn) the results were RE007 growth inh 359.5%, Lassa entry inh 9.1%, MARV entry inh 26.2%[46.1 µM], SARS PLpro yeast -0.7%, NS1 inh -6.5% and 2A StopGo -19.6%.
CCN(CCO)c1cc(Cl)nc(SC)n1 was read as RE007 growth inh 10.2%, Lassa entry inh 1.9%, Cruzain Triton 7.4%, MARV entry inh 18.2%, SARS PLpro yeast 0.1%, NS1 inh 7.6%, Cruzain inh noDet -3.7% and 2A StopGo 65.7%[activator].
Screening CN1CCN(C(=O)CC2C(=O)NCCN2Cc2ccc(-c3ccccc3)cc2)CC1 (stereo not drawn) returned RE007 growth inh -2.8%, Lassa entry inh -1.1%[46.1 µM], MARV entry inh 1.8%[46.1 µM], SARS PLpro yeast -1.2%, NS1 inh -4.5% and 2A StopGo -5.0%.
`CCCCNC(=O)OCCNC(=O)Oc1cccc(C)c1` gave RE007 growth inh 2.9%, Lassa entry inh 1.0%, Cruzain Triton -9.1%, MARV entry inh 2.9%, SARS PLpro yeast -7.9%, NS1 inh -9.8%, Cruzain inh noDet -3.2% and 2A StopGo -9.0%.
Screening COc1cc(C)ccc1OCC(=O)OCC(=O)c1ccc[nH]1 returned RE007 growth inh 5.8%, Lassa entry inh inconclusive, MARV entry inh -8.0%, SARS PLpro yeast -1.3% and 2A StopGo 10.8%.
Screening COc1ccc(N2CCN(C(=O)c3cnc(N4CCOCC4)c4ccccc34)CC2)cc1 returned Lassa entry inh inconclusive, Cruzain Triton -0.7%, Cruzain inh noDet inconclusive and 2A StopGo -13.3%.
CN(CC(=O)Nc1cccc2ccccc12)C(=O)c1cccc(S(=O)(=O)N(C)C)c1 was read as RE007 growth inh -3.8%, SARS PLpro yeast 2.2%, NS1 inh inconclusive and 2A StopGo -11.3%.
Screening COc1ccc(S(=O)(=O)Nc2ccc(C)cc2)cc1OC returned RE007 growth inh -13.6%, Lassa entry inh -0.1%, Cruzain Triton -2.8%, MARV entry inh -1.2%, SARS PLpro yeast -4.8%, NS1 inh 3.3%, Cruzain inh noDet -4.0% and 2A StopGo 66.0%[activator].
For O=C(O)c1ccc(/C=N\Nc2ccc(S(=O)(=O)N3CCOCC3)cc2[N+](=O)[O-])cc1 the results were RE007 growth inh -7.2%, SARS PLpro yeast 1.9%, NS1 inh 0.0% and 2A StopGo 3.5%.
`CC1CCC(NC(=O)COC(=O)CCC(=O)c2ccc(Cl)s2)CC1` (stereo not drawn) gave RE007 growth inh 18.0%, Lassa entry inh -21.1%[46.1 µM], MARV entry inh -0.7%, SARS PLpro yeast 1.7% and 2A StopGo -18.6%.
`Cc1ccc(C)c(CNC(=O)c2ccc3c(c2)nc2n3CCC(C)C2)c1` (stereo not drawn) gave Lassa entry inh -26.2%[46.1 µM], Cruzain Triton 1.5%, Cruzain inh noDet 2.8% and 2A StopGo 19.2%.
`O=C(COc1ccccc1)NCC(=O)N1CCCC(C(F)(F)F)C1` (stereo not drawn) gave RE007 growth inh 0.0%, Lassa entry inh -3.8%, MARV entry inh -8.2% and 2A StopGo -2.5%.
COc1ccc(-c2nc3ncccn3c2Br)cc1 was read as RE007 growth inh -18.1%, SARS PLpro yeast -0.8%, NS1 inh -33.5% and 2A StopGo 69.9%[activator].
Screening CN(C(=O)c1ccc(S(=O)(=O)N2CCCCC2)cc1)C1CCS(=O)(=O)C1 (stereo not drawn) returned RE007 growth inh -16.0%, Lassa entry inh inconclusive, MARV entry inh 16.4%, SARS PLpro yeast 1.0% and 2A StopGo -11.9%.
COc1cccc(NC(=O)c2cnc[nH]2)c1 was read as RE007 growth inh -8.2%, SARS PLpro yeast -0.3%, NS1 inh -1.6% and 2A StopGo 49.1%[activator].
For COc1ccc(NC(C)=O)cc1S(=O)(=O)NC(Cc1ccccc1)C(=O)NCc1ccccc1C (stereo not drawn) the results were RE007 growth inh 9.1%, Lassa entry inh 6.1%[46.1 µM], MARV entry inh -0.3%[46.1 µM], SARS PLpro yeast -1.0%, NS1 inh 1.0% and 2A StopGo 0.0%.
C/C(CC(=O)Nc1cccnc1)=N\NC(=O)c1ccc([N+](=O)[O-])c(Cl)c1 was read as RE007 growth inh 0.9%, Lassa entry inh -3.5%, Cruzain Triton -3.6%, MARV entry inh 14.5%, SARS PLpro yeast inconclusive, NS1 inh inconclusive, Cruzain inh noDet -8.2% and 2A StopGo -16.3%.
Screening Cc1cccc(NC2=NC(C)(C)N=C(N)N2)c1C returned RE007 growth inh 25.6%, Lassa entry inh inconclusive, Cruzain Triton -6.2%, MARV entry inh 12.3%[46.1 µM], SARS PLpro yeast 7.9%, NS1 inh 2.1%, Cruzain inh noDet -1.4% and 2A StopGo 1.2%.
O=C(Cn1ccc(=O)[nH]c1=O)Nc1ccc(C(=O)O)c(O)c1 was read as Cruzain Triton 4.6%, SARS PLpro yeast 7.8%, NS1 inh -3.1%&4.7%, Cruzain inh noDet -7.9% and 2A StopGo -14.2%.
`C/C(=N/Nc1cc(-c2ccccc2)nc(-c2ccccc2)n1)c1ccc(O)cc1` gave RE007 growth inh -6.1%, Lassa entry inh -16.4%, Cruzain Triton 0.1%, MARV entry inh inconclusive, SARS PLpro yeast -60.7%, NS1 inh -37.1%, Cruzain inh noDet inconclusive and 2A StopGo 5.1%.
Screening Cn1c(=O)[nH]c(=O)c2c1nc(Br)n2C/C=N/Nc1ccccc1 returned RE007 growth inh 180.0%, Lassa entry inh -10.4%[46.1 µM], MARV entry inh inconclusive, SARS PLpro yeast -1.1% and 2A StopGo -15.1%.
`CCOP(=O)(c1ccc(N(C)C)cc1)C(O)c1ccc(OC)cc1` (stereo not drawn) gave RE007 growth inh 3.9%, Lassa entry inh -0.2%, MARV entry inh 3.3%[46.1 µM], SARS PLpro yeast 0.2%, NS1 inh -2.0% and 2A StopGo 10.8%.
For Cc1ccc(S(=O)(=O)/N=C(/Nc2c(C)n(C)n(-c3ccccc3)c2=O)c2ccc(Cl)cc2)cc1 the results were RE007 growth inh -1.4%, Lassa entry inh inconclusive, Cruzain Triton 2.1%, MARV entry inh -5.0%, SARS PLpro yeast -3.6%, NS1 inh -6.5%, Cruzain inh noDet 0.8% and 2A StopGo 60.9%[activator].
For O=C(/C=C\c1cn(-c2ccccc2)nc1-c1ccccc1)Nc1nccs1 the results were RE007 growth inh -8.8%, Lassa entry inh inconclusive, Cruzain Triton -6.4%, MARV entry inh inconclusive, SARS PLpro yeast -18.0%, NS1 inh 18.7%, Cruzain inh noDet -28.2% and 2A StopGo -10.6%.
Screening Cc1cc(C)c(Cn2c(C)c(CNCCCc3ccccc3)c(C(=O)O)c2C)c(C)c1 returned Lassa entry inh -12.0%[46.1 µM], Cruzain Triton -2.3%, MARV entry inh -27.6%[46.1 µM], Cruzain inh noDet 9.9% and 2A StopGo -6.7%.
Screening O=C(NC1CC1)C1=C[C@H](c2csc3ccccc23)C[C@H](OCc2ccc(CO)cc2)O1 returned RE007 growth inh -17.9%, SARS PLpro yeast -12.2%, NS1 inh -33.2% and 2A StopGo -28.1%.
`O=C(COC(=O)CCC(=O)c1cccs1)NC1CC1` gave RE007 growth inh -8.7%, Lassa entry inh 10.0%, MARV entry inh 7.8%, SARS PLpro yeast 3.4% and 2A StopGo 9.9%.
Screening CCC(=O)Nc1nnc(S(=O)(=O)N2c3ccccc3CC2C)s1 (stereo not drawn) returned RE007 growth inh 0.8%, Lassa entry inh 19.9%[46.1 µM], Cruzain Triton -2.4%, SARS PLpro yeast 0.9%, NS1 inh -5.7%, Cruzain inh noDet 4.3% and 2A StopGo 2.8%&3.1%.
Screening COc1ccc(-c2noc(-c3ccc(NCc4ccco4)c([N+](=O)[O-])c3)n2)cc1OC returned Lassa entry inh -7.1%[46.1 µM], Cruzain Triton -2.8%, MARV entry inh -17.3%[46.1 µM], Cruzain inh noDet inconclusive and 2A StopGo -7.3%.
CC(=O)c1cc2c(cc1NC(=O)c1cccc(S(=O)(=O)N3CCN(C)CC3)c1)OCO2 was read as RE007 growth inh -10.2%, Lassa entry inh 0.7%[46.1 µM], MARV entry inh 15.4%[46.1 µM], SARS PLpro yeast -0.6%, NS1 inh 2.6% and 2A StopGo -15.5%.
`CCCCN1/C(=C/c2ccc3ccccc3[n+]2CC)Sc2ccccc21` gave RE007 growth inh inconclusive, Lassa entry inh 2.24µM*, MARV entry inh 5.62µM*, SARS PLpro yeast -5.2%, NS1 inh -61.6% and 2A StopGo 20µM*.
Screening Cc1ccccc1NC(=O)Cn1c(=O)n(CCCCC(=O)NCc2ccccc2Cl)c(=O)c2ccccc21 returned Lassa entry inh -28.0%[46.1 µM], Cruzain Triton -0.4%, MARV entry inh 0.0%[46.1 µM], Cruzain inh noDet -4.8% and 2A StopGo -24.8%.
Cc1cccc(-c2noc(CNS(=O)(=O)c3ccccc3)n2)c1 was read as RE007 growth inh -16.3%, Lassa entry inh 24.1%[46.1 µM], MARV entry inh -1.7%[46.1 µM], SARS PLpro yeast -1.3%, NS1 inh -3.7% and 2A StopGo -7.7%.
`CCC(Oc1ccccc1)C(=O)Nc1cc(Cl)ccc1-n1cncn1` (stereo not drawn) gave RE007 growth inh -8.6%, Lassa entry inh -7.2%[46.1 µM], MARV entry inh -20.9%, SARS PLpro yeast 0.4% and 2A StopGo -28.6%.
For CC(=O)N1N=C(c2ccncc2)OC12CCCC2 the results were RE007 growth inh -11.6%, Lassa entry inh 20.5%, Cruzain Triton 4.2%, MARV entry inh -16.2%, SARS PLpro yeast 5.0%, NS1 inh 5.2%, Cruzain inh noDet -1.2% and 2A StopGo 0.0%.
For CCCCn1c(N)c(N(CCOC)C(=O)c2ccc(-c3cccc(C(F)(F)F)c3)o2)c(=O)[nH]c1=O the results were RE007 growth inh -19.5%, Lassa entry inh inconclusive, MARV entry inh -5.1%[46.1 µM], SARS PLpro yeast 9.2% and 2A StopGo -20.4%.
